Screens from PubChem BioAssay.
Methyltransferases = Primary Screen for Target Class Profiling of Small Molecule Inhibitors of Methyltransferases; 25,000 compounds, 3.9% hits; purified enzyme, MTase-Glo SAH luminescence; hits give low values; calls only at 40 µM; active = -50% or lower on at least one of six enzymes; inconclusive = the cases between; inactive = as a rule above -30% on all six;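 also: enzymes were COMT GAMT GNMT HNMT NNMT and PNMT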
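Each enzyme was assayed with SAM and its substrate. SAH formation detected by MTase-Glo luminescence; single-point 40 uM screen[…].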
Calls only; i = inactive; ? = inconclusive; + = active, no number; ! = a repeat was not active. % is scaled to controls: 0 for no effect and ±100 for the full control effect. An excerpt, so the mix of outcomes need not match the whole.

SMILES	Methyltransferases
Cc1nn(C(=O)CCC(=O)N2CCC(Cc3nncn3CC3CC3)CC2)c2ccccc12	+
COc1cccc(C(=O)N(CC(C)C)CC2CN(C(=O)Nc3ccccc3)CCO2)c1 (configuration not stated)	i
CCOC(=O)c1oc2cc3sc(N4CCCCC4)nc3cc2c1C	i
O=C(N1CCC(Cc2nc(C3CC3)n[nH]2)CC1)C1(c2ccccc2)CC1	i
CNc1nc2c(c(C(=O)N3CCCC3)n1)CN(CC1(O)CCNC1)CC2 (configuration not stated)	i
C[C@@H]1CC[C@]2(C(=O)O)CC[C@]3(C)C(=CCC4[C@@]5(C)C[C@@H](O)[C@H](O)[C@@](C)(CO)C5CC[C@]43C)C2[C@]1(C)O (some centres not stated)	i
COc1cc2c(c(O)c1OC/C=C(\C)CC/C=C(/C)CCC=C(C)C)CN(C(CCC(=O)O)C(=O)O)C2=O (configuration not stated)	i
CCCN(CCc1ccccc1)C1CCc2c(O)cccc2C1 (configuration not stated)	i
CN1C(=O)C(CC(=O)N2CCC(C#N)CC2)(Cc2ccccc2)c2ccccc21 (configuration not stated)	i
CC(C)OCCCNC(=O)C1(C)Cn2c(cc3ccccc32)C(=O)N1Cc1ccccc1F (configuration not stated)	i
Nc1ccc(-c2nc3ccc(-c4nc5ccc(N)cc5[nH]4)cc3[nH]2)cc1	i
Cc1ccc(N2C(=O)c3cc4sccc4n3CC2(C)C(=O)NC2CCC(C)CC2)c(C)c1 (configuration not stated)	i
O=S(=O)(c1cccc(-c2nc(-c3ccccc3)no2)c1)N1CCc2ccccc21	i
O=C(O)C1Cn2cccc2C(=O)N1Cc1cccnc1 (configuration not stated)	i
Cc1ccccc1C(=O)N1CC/C(=N\OS(=O)(=O)O)c2ccc(Cl)cc21	i
CCOCCCNC(=O)C1c2c(n(C)c3ccccc23)SCC(=O)N1c1ccc(CC)cc1 (configuration not stated)	i
CCCn1c(=O)c2ccc(C(=O)NC3CCCCC3)cc2n2c(=O)n(CC(=O)c3cc(C)ccc3C)nc12	i
CN1Cc2ccc(NCc3ccccc3)nc2C(C)(C(=O)Nc2ccccc2)C1 (configuration not stated)	i
COc1ccc(CCc2nc3nccc(-c4ccncc4)n3n2)cc1	i
O=C(c1ccc2ccccc2n1)N1CCC(n2cc(-c3nc(-c4ccccc4)no3)nn2)C1 (configuration not stated)	i
Cc1cc(O)cc(O[C@@H]2O[C@H](CO)[C@@H](O)[C@H](O)[C@H]2O)c1	?
O=C(Cn1cccn1)N1C[C@@H](COCC2CC2)[C@H](c2ccccn2)C1	i
CCN1C(=O)c2cc(C(=O)NCCN3CCOCC3)nn2CC1(C)C(=O)NC1CCCC1 (configuration not stated)	i
Cc1ccc(S(=O)(=O)c2nnn3c2nc(N2CCN(C)CC2)c2cc(Cl)ccc23)cc1C	i
COc1ccccc1CN1C(=O)c2ccc(-c3ccco3)n2CC1(C)C(=O)NC1CCCCC1C (configuration not stated)	i
C[C@@H]1CCC2C(C)(C)[C@H](O)CC[C@]2(C)[C@@]12Cc1c(O)cc3c(c1O2)CNC3=O (some centres not stated)	i
O=C(c1ccc(OC(F)F)cc1)N1C[C@H](CO)C[C@H](CN2CCCC2)C1	i
CCc1cc(C(=O)N2CC[C@@H]3[C@@H](CCC(=O)N3CCN)C2)n(C)n1	i
CC(C)Cn1c(=O)c2ccccc2n2c(=O)n(Cc3ccccc3)nc12	i
CCOc1ccc(CN2C(=O)c3cc4sccc4n3CC2(C)C(=O)NC2CCCCC2)cc1 (configuration not stated)	i
CCC12CCCN3CCc4c(n(c5ccccc45)C(O)C1)C32 (configuration not stated)	?
COc1cccc(C(C)N(C)Cc2nc(-c3cccs3)no2)c1 (configuration not stated)	i
C#CCN(Cc1ccco1)Cc1cnc(S(C)(=O)=O)n1CCCc1ccccc1	i
CCc1cc2c(cc3n2CC(C(=O)NC2CCCCCC2)(c2ccccc2)N(Cc2ccccc2)C3=O)s1 (configuration not stated)	i
CC(C)c1ccc2c(c1)C(=O)CC1C(C)(C(=O)O)CCCC21C (configuration not stated)	i
CCCn1c(=O)c2ccc(Cl)cc2n2c(=O)n(Cc3cccc(OC)c3)nc12	i
COCC(=O)O[C@]1(CCN(C)CCCc2nc3ccccc3[nH]2)CCc2cc(F)ccc2[C@@H]1C(C)C	i
NCCCCNCCCN	i
CCC(=O)N1CCOc2c(cc(-c3ccc(OC)c(OC)c3)cc2OC[C@H]2CCCN(C)C2)C1	+!
CC(=O)N1CCc2[nH]cnc2C12CCN(C(=O)CCn1nnnc1C)CC2	i
COc1ccccc1CNC(=O)C1(C)Cn2cnc(C(=O)N3CCCC3)c2C(=O)N1C1CC1 (configuration not stated)	i
CN1C(=O)c2cc(C(=O)NCc3ccccn3)nn2CC1(C)C(=O)NCc1ccc(F)cc1 (configuration not stated)	i
CCC(C)NC(=O)c1ccc2c(=O)n(C)c3nn(Cc4cccc(C)c4)c(=O)n3c2c1 (configuration not stated)	i
CN(C)c1cc(N2CCCC(NC(=O)c3cccnc3)C2)ncn1 (configuration not stated)	i
Cc1cc(CNC(=O)c2cc(C(C)C)nn2C)c2[nH]c(C)c(C)c2c1	i
CN(C)[C@@H]1CO[C@H](CNC(=O)N2CCOCC2)[C@H]1O	i
COc1cccc(CN2CCNC(=O)C2CC(=O)N2CCNC(=O)C2)c1OC (configuration not stated)	i
CC(C)(O)C1CC=C(C(=O)OCC2OC(Oc3c(O)cc(C(=O)O)cc3O)C(O)C(O)C2O)CC1 (configuration not stated)	+
Nc1nc2c(c(N3CC[C@@H](O)C3)n1)CCN(C(=O)[C@H]1CCCO1)CC2	i
CC(C)S(=O)(=O)c1ccc2nccc(Nc3ccc4scnc4c3)c2c1	i
CNC(=O)C1C(=O)NCC12CCN(C(=O)c1ccc(C(C)(C)C)cc1)CC2 (configuration not stated)	i
CC1=C(/C=C/C(C)=C/C=C/C(C)=C\C(=O)O)C(C)(C)CCC1	?
Cc1ncc(C(=O)N[C@H]2CC[C@H]2NC2CCCC2)c(-c2ccccc2)n1	i
CCCn1c(=O)c2ccc(C(=O)NC3CCCCC3)cc2n2c(=O)n(CC(=O)Nc3ccccc3)nc12	i
C[C@H](CN1CCCC1)C(=O)c1ccc(C(F)(F)F)cc1	i
C[C@H]1CO[C@@H]2Cn3cc(C(=O)NCc4ccc(F)cc4F)c(=O)c(O)c3C(=O)N12	i
COc1ccccc1Nc1ncc2c(n1)CN(C(=O)c1ccnn1C)CCN2	i
CN1CCC(Oc2ncccc2NC(=O)c2ccncc2)C1 (configuration not stated)	?
CCOCCCN1C(=O)c2cc3sccc3n2CC1(C)C(=O)NC1CCCCCCC1 (configuration not stated)	i
CC[C@@H](O)C[C@@H]1C(C)=C[C@@H]2CCCC[C@@H]2[C@@]1(C)C(=O)O	i

Next section.
SMILES	Methyltransferases
COC[C@@H]1CN(S(=O)(=O)c2ccc(C)cc2)C[C@H]1c1ccncc1	i
Cn1ccc(C(=O)N2CC3ON=C(C(=O)NCCc4ccc(Cl)cc4)C3C2)n1 (configuration not stated)	i
CCCn1c(=O)c2ccc(C(=O)NCC(C)C)cc2n2c(SCC(=O)Nc3ccc(C)cc3)nnc12	i
CC1(C)CC(=O)c2c(C(F)(F)F)nn(-c3ccc(C(N)=O)c(NC4CCC(OC(=O)CN)CC4)c3)c2C1 (configuration not stated)	+!
Cc1nc2c(OCC(=O)OC(C)(C)C)cccn2c(=O)c1-c1cc(C)n(-c2cccc(F)c2)n1	i
CCOc1ccc(-c2cc3n(n2)CC(C)(C(=O)NC2CCCCC2)N(c2ccccc2C)C3=O)cc1 (configuration not stated)	i
C[S+](=O)([O-])N1CC2(CCCCN2Cc2ccccn2)Cc2ccccc21 (configuration not stated)	i
CC1(C(=O)NC2CCCCCC2)Cn2c(nc3ccccc32)C(=O)N1CCCc1ccccc1 (configuration not stated)	i
CCc1noc(-c2cn(C3CCN(C(=O)C4(c5ccccc5)CC4)C3)nn2)n1 (configuration not stated)	i
CCc1ccc(CN2C(=O)c3cc(-c4ccccc4)nn3CC2(C)C(=O)NCc2ccccc2)cc1 (configuration not stated)	i
Clc1ccc2ncc(-c3cccc(NC4CNC4)n3)n2c1	?
CCn1cc(C(=O)N[C@@H]2CN(c3ncccn3)C[C@H]2CO)cn1	i

14 consecutive entries out of the list so far, quoted:
SMILES	Methyltransferases
C[C@H]1CO[C@@H]2Cn3cc(C(=O)NCc4ccc(F)cc4F)c(=O)c(O)c3C(=O)N12	i
COc1ccccc1Nc1ncc2c(n1)CN(C(=O)c1ccnn1C)CCN2	i
CN1CCC(Oc2ncccc2NC(=O)c2ccncc2)C1 (configuration not stated)	?
CCOCCCN1C(=O)c2cc3sccc3n2CC1(C)C(=O)NC1CCCCCCC1 (configuration not stated)	i
CC[C@@H](O)C[C@@H]1C(C)=C[C@@H]2CCCC[C@@H]2[C@@]1(C)C(=O)O	i
COC[C@@H]1CN(S(=O)(=O)c2ccc(C)cc2)C[C@H]1c1ccncc1	i
Cn1ccc(C(=O)N2CC3ON=C(C(=O)NCCc4ccc(Cl)cc4)C3C2)n1 (configuration not stated)	i
CCCn1c(=O)c2ccc(C(=O)NCC(C)C)cc2n2c(SCC(=O)Nc3ccc(C)cc3)nnc12	i
CC1(C)CC(=O)c2c(C(F)(F)F)nn(-c3ccc(C(N)=O)c(NC4CCC(OC(=O)CN)CC4)c3)c2C1 (configuration not stated)	+!
Cc1nc2c(OCC(=O)OC(C)(C)C)cccn2c(=O)c1-c1cc(C)n(-c2cccc(F)c2)n1	i
CCOc1ccc(-c2cc3n(n2)CC(C)(C(=O)NC2CCCCC2)N(c2ccccc2C)C3=O)cc1 (configuration not stated)	i
C[S+](=O)([O-])N1CC2(CCCCN2Cc2ccccn2)Cc2ccccc21 (configuration not stated)	i
CC1(C(=O)NC2CCCCCC2)Cn2c(nc3ccccc32)C(=O)N1CCCc1ccccc1 (configuration not stated)	i
CCc1noc(-c2cn(C3CCN(C(=O)C4(c5ccccc5)CC4)C3)nn2)n1 (configuration not stated)	i

2 entries drawn at random from the list so far, as already listed:
SMILES	Methyltransferases
CCc1ccc(CN2C(=O)c3cc(-c4ccccc4)nn3CC2(C)C(=O)NCc2ccccc2)cc1 (configuration not stated)	i
Clc1ccc2ncc(-c3cccc(NC4CNC4)n3)n2c1	?

Later entries
SMILES	Methyltransferases
NC(=O)N1CCCC(C(=O)NCCCn2nccc2C2CC2)C1 (configuration not stated)	i
O=c1c2ccccc2n2c(SCc3cccc(F)c3)nnc2n1Cc1ccc(F)cc1	i
Cn1c(CNc2cccc(C(=O)NCc3ccccc3C(F)(F)F)c2)nnc1-c1ccncc1	?
CN(CC(=O)NCCC1=CCCCC1)S(=O)(=O)c1ccc2[nH]c3c(c2c1)CCCC3	i
CC1=CC2=C(C)C(=O)[C@](C)(O)[C@H](O)C2=CO1	i
Clc1ccc2c(c1)C1C=CCC1C(c1cccc(Br)c1)N2 (configuration not stated)	i
O=S(=O)(NCC1CCOCC1)c1cccc(F)c1	i
COc1ccccc1CN1C(=O)c2cc3occc3n2CC1(C)C(=O)NC1CCCCCCC1 (configuration not stated)	i
O=S(=O)(NC1CCNCC1)c1cc(S(=O)(=O)c2ccccc2)ccc1C(F)(F)F	i
COc1ccc(CNC(=O)Cn2ccc3cc(S(=O)(=O)N4CCCCC4)ccc32)cc1OC	i
CC(C)NC(=O)C1COC2(CCCCC2)N1C(=O)Cc1ccccc1 (configuration not stated)	i
CCCC(C)c1c(-c2ccccc2)ncn1CCNC(C)=O (configuration not stated)	i
COc1cc2nc(-c3ccc(N4CCN(C)CC4)cc3)nc(NCCN3CCOCC3)c2cc1OC	i
Cc1nc(C(=O)N2CC[C@H](NC(=O)c3cnccn3)C[C@H]2C(=O)N[C@@H](Cc2cccs2)C(N)=O)cs1	i
CC1(C(=O)NC2CCCCCC2)Cn2c(ccc2-c2ccco2)C(=O)N1Cc1ccc(F)cc1 (configuration not stated)	i
CCN1C(=O)c2cc(C(=O)NCCCc3ccccc3)nn2CC1(C)C(=O)NC1CCCC1 (configuration not stated)	i
CN1CC2CN(c3ccc4oc5ccccc5c(=O)c4c3)CC2C1 (configuration not stated)	?
Cc1cc2c(cc1S(=O)(=O)NCc1ccccc1)n(C)c(=O)n2C	i
COc1ccc(OC)c(-c2nnc3n(Cc4ccc(C)cc4)c(=O)c4ccccc4n23)c1	i
Cc1cc(C(F)(F)F)nc(CCNC(=O)C2NCCc3[nH]cnc32)n1 (configuration not stated)	i
COc1ccc2c(c1)CC(NS(=O)(=O)c1ccc(C)cc1)CO2 (configuration not stated)	i
COc1ccc2cc3n(c2c1)CC(C)(C(=O)NC1CCCC1)N(C1CCCC1)C3=O (configuration not stated)	i
CCC(C)NC(=O)c1ccc2c(=O)n(C(C)C)c3nn(CC(=O)NC(C)(C)C)c(=O)n3c2c1 (configuration not stated)	i
Nc1ccc(CCNc2ncnc3c2ncn3C2OC(CO)C(O)C2O)cc1 (configuration not stated)	i
CN1C(=O)c2cc(C(=O)NCCc3cccs3)nn2CC1(C)C(=O)NC1CCCCC1 (configuration not stated)	i
Cc1ccc(C)c(Cn2nc3n(C(C)C)c(=O)c4ccc(C(=O)NC5CCCC5)cc4n3c2=O)c1	i
COc1cccc(CN2CC(C(=O)NCc3cc4ccccc4[nH]3)CCC2=O)c1 (configuration not stated)	i
Cc1ccc2c(c1)c(-n1cccc1)c1n2CC(C)(C(=O)NC2CCCC2)N(CCC2=CCCCC2)C1=O (configuration not stated)	i
Cc1ccc(Cn2c(=O)c3ccccc3n3c(CCC(=O)N4CCC(C)CC4)nnc23)cc1	i
CCN1C(=O)CN(C(=O)CC(C)C)CC12CCOCC2	i
CCOc1ccccc1CNC(=O)C(C)n1ccc2cc(S(=O)(=O)N3CCCC3)ccc21 (configuration not stated)	i
O=C(C[C@H]1NC(=O)c2ccccc2NC1=O)Nc1ccc(N2CCCS2(=O)=O)cc1	i
NS(=O)(=O)c1cccc(N=Cc2c(O)[nH]c3ccccc23)c1	?
Cc1cccc(N2C(=O)c3ccccc3CC2(C)C(=O)NCc2ccccc2)c1 (configuration not stated)	i
FC(F)(F)c1ccc(CN2CCCC3(CC(Cc4ccccc4)=NO3)C2)cc1 (configuration not stated)	i
